NPYLR7 ag: mosquito NPYLR7 agonism; HEK293T NPYLR7/Galpha15, GCaMP6s calcium fluorescence; activation, % at 10 µM; 270,000 tested, 0.15% active; AID 1259423; in the data active = activation above about 40%;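 note: 0% = vehicle and 100% = reference agonist at the receptor; some compounds past the cut are filed as inactive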
NPYLR7 ag max-min: further read-out of NPYLR7 ag, marked with its call; activation, %; measured here: Max-Min RFU normalised activation; some inactives read as strong as hits;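 span of the calcium signal over five minutes; 0% = vehicle and 100% = native peptide agonist; compound fluorescence can raise it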
Active calls of the source: *; & = joins results of further samples.

#	molecule	NPYLR7 ag	NPYLR7 ag max-min
1	O=C(NCCc1ccccc1)c1cnn2c(C(F)(F)F)cc(-c3ccc4c(c3)OCO4)nc12	9.2	8.6
2	Cc1[nH]cnc1CN(C)Cc1ccccc1C(F)(F)F	5.9	1.8
3	Cc1nc(CC(=O)N(C)Cc2cc(C(C)(C)C)n[nH]2)c(C)s1	8.9	-2.4
4	CC(=O)c1ccc(NC(=O)N2Cc3cc(F)ccc3CC2C)cc1 (stereo not drawn)	-0.1	-1.3
5	CN=c1scc(-c2ccc(Br)s2)n1N=C1C(=O)Nc2ccccc21	3.7	2.2
6	Cc1c(C(C)NC(=O)c2ccnn2C)cnn1-c1ccccn1 (stereo not drawn)	13.4	6.2
7	CC(C)(C)C(=O)Nc1ccnn1C1CCN(C(=O)c2ccccc2-c2ncc[nH]2)CC1	3.9	-8.6
8	Cn1c(NC(=O)c2cccc3ccccc23)cc(=O)n(C)c1=O	-0.5	3.3
9	O=C(c1ccc2c3c(cccc13)CC2)C1CCCN(C(=O)c2n[nH]c3c2CCCC3)C1 (stereo not drawn)	5.8	-2.8
10	O=C(COc1coc(CN2CCN(c3ccccc3)CC2)cc1=O)NC1CCCC1	-0.9	-1.6
11	CCN(CC)CCn1c2ccc([N+](=O)[O-])cc2c2cc([N+](=O)[O-])ccc21	-4.2	-6.3
12	CCC(C)c1ccccc1OCCN1CCOCC1 (stereo not drawn)	1.7	0.1
13	N#CC(C(=O)N1CCOCC1)c1ccc(C(F)(F)F)cn1 (stereo not drawn)	9.0	4.4
14	O=C1CCS(=O)(=O)c2ccccc21	4.5	3.5
15	Cc1c[n+](CC(=O)c2ccccc2)cc(C)n1	4.7	-4.1
16	COc1ccc(-n2nc(C(C)(C)C)cc2NC(=O)CN(C)C(=O)Nc2c(C(C)C)cccc2C(C)C)cc1	-6.1	-5.0
17	O=C(NCC(=O)N1CCc2c(Br)cccc2C1)C1CC1	-0.8	-1.3
18	CCN(CC)C(=O)CN1CCN(C(=O)c2ccc(S(=O)(=O)N3CCCCC3)cc2)CC1	2.3	0.9
19	COC[C@H]1C[C@H]2C[C@@H](OC)[C@H](N3CCCCC3)[C@]2(O)CO1	3.0	7.1
20	O=C(Cn1c2ccccc2n2ncnc12)c1ccc(Cl)cc1	-0.9	-7.0
21	COc1ccc(N2CCN(C(=O)C3CC=CCC3C(=O)Nc3cccc4c3CCCC4)CC2)cc1 (stereo not drawn)	-8.8	-14.3
22	O=C(CC(=O)NN=Cc1ccco1)NN=Cc1ccco1	6.7	9.0
23	CC1=NC2=C(C(=O)CCC2)C(c2ccc(C)s2)C1C(=O)OC1CCCC1 (stereo not drawn)	20.0	18.6
24	O=C(c1coc(COc2ccc(F)cc2)n1)N1CCC(c2ccc(F)cc2)C1 (stereo not drawn)	14.4	4.1
25	CN(C)C(=O)Cc1nc(CSc2nc3ccccc3[nH]2)cs1	-6.7	-8.1
26	CCc1ccc2c(c1)c(=O)c(S(=O)(=O)c1ccc(OC)cc1)cn2C	-9.1	-13.5
27	CC(C)(C)OC(=O)NCCCn1ccc2cc(C(=O)O)ccc21	-0.6	-2.1
28	O=C(C(Cc1cnc[nH]1)n1cccc1)N1CCC2(CC1)C(=O)Nc1ccccc12 (stereo not drawn)	12.4	6.1
29	CC(C)Cc1ccc(C(=O)c2cccs2)cc1	-1.7	-4.1
30	COc1ccc(/C=C/c2nn3c(CN4CCCCCC4)nnc3s2)cc1	0.5	0.1

#	molecule	NPYLR7 ag	NPYLR7 ag max-min
31	COc1ccc2c(c1)CCCN2C(C)c1nc2ccccc2c(=O)[nH]1 (stereo not drawn)	3.8	2.5
32	Cc1ccc(C)c(CS(=O)(=O)CCCN2C(=O)NC(C)(C)C2=O)c1	-7.1	-7.8
33	Cc1nc2cc(I)ccc2s1	-4.4	-5.3
34	COc1ccc2[nH]c3c(c2c1)C[C@H]1C[C@H]3[C@@H](OC)CN1C(=O)OCc1ccccc1	25.3	28.4
35	CC(C)C1CN(C(=O)CCn2cncn2)CCCN1Cc1ccc(F)cc1 (stereo not drawn)	3.1	1.4
36	CCc1cc(N2CCN(c3cccc(C(F)(F)F)c3)CC2)nc(SCc2ccc(C(=O)NCc3ccccn3)cc2)n1	9.2	12.6
37	O=C(/C=C/c1ccsc1)N1CCC(Nc2cccnc2)CC1	6.6	3.8
38	CNC(=O)[C@@H]1[C@@H](O)C(=O)N(C)C12CCN(C(=O)OCc1ccccc1)CC2	22.7	19.8
39	Cc1ccc(Oc2ncccc2C(=O)N2CCC(n3c(=O)oc4cccc(C)c43)CC2)cc1	4.0	-0.7
40	COCCNC(=O)C(NC(=O)C1CC1)C1CCN(C(=O)c2ccc(F)cc2)CC1 (stereo not drawn)	-2.5	-1.8
41	CCS(=O)(=O)NCCc1cc2ccc(C)cc2[nH]c1=O	1.5	0.2
42	CCN(CC)C(=O)CSc1nc(-c2ccccc2F)nc2c1c(=O)n(C)c(=O)n2C	-3.8	-8.6
43	CCOC(=O)C1(C)CCN1C(=O)c1ccccc1OC(F)(F)F (stereo not drawn)	-0.6	1.8
44	O=C1COc2ccc(S(=O)(=O)N3CCOCC3)cc2N1	3.8	-0.1
45	CC(C)(C)c1cc(NC(=O)c2ccccc2C(F)(F)F)n(-c2ccc(Br)cc2)n1	9.9	-4.3
46	COc1cccc(N2CCn3c2nc2c3c(=O)n(CCN3CCCCC3)c(=O)n2C)c1	-2.2	-3.5
47	CCOCC1CCCN(C(=O)c2c(C)nc(C(C)(C)C)[nH]c2=O)C1 (stereo not drawn)	-0.7	-1.9
48	COCCN(Cc1c(-c2ccccc2)nn(C)c1Oc1cccc(F)c1)CC(O)Cc1ccccc1 (stereo not drawn)	6.1	6.8
49	O=C1[C@@H]2C[C@H](O)CCN2C(=O)CN1CCCN1CCOCC1	-1.5	-9.1
50	O=c1nc(SCc2ccc(F)cc2)nc2ccccn12	1.8	1.3
51	Cn1nc(C(=O)NNC(=O)c2csc(N3CCOCC3)n2)ccc1=O	8.7	2.2
52	Cc1ccc(OCC(=O)Nc2cc(C)on2)cc1	-5.4	-5.4
53	Cc1nc2ccc(Nc3ncnc4sc5c(c34)CCC5)cc2s1	-6.2	-13.6
54	CC(C)(C)n1ncc2c(=O)n(NC(=O)Cc3cccs3)cnc21	1.8	-0.7
55	O=C(CSc1ccc2nnc(CCNC(=O)c3ccc(F)cc3)n2n1)c1ccccc1	3.5	-6.4
56	CC(NCc1ncc[nH]1)c1cccc(C(F)(F)F)c1 (stereo not drawn)	-9.0	-8.4
57	O=C(O)Cc1ccc(F)c(-c2cccc3ccnn23)c1	25.1	14.4
58	CCc1c(C(=O)NCc2ccco2)cnn1-c1ccc(F)cc1	15.5	29.7
59	Cc1cc(C)c(NC(=O)c2cc([N+](=O)[O-])ccc2Cl)c([N+](=O)[O-])c1	-4.6	-5.3
60	CCOC(=O)c1cn[nH]c1S(=O)(=O)Nc1ccc(F)cc1	-2.3	-5.3

#	molecule	NPYLR7 ag	NPYLR7 ag max-min
61	Cc1cc(C)n2ncc(CN(C)C(C)C(=O)N(C)C)c2n1 (stereo not drawn)	7.9	4.5
62	O=C(C=c1[nH]c(=O)c(=Cc2ccc3c(c2)OCCO3)s1)c1ccc(Cl)cc1	-1.0	-1.6
63	COCCN(Cc1cccs1)C(=O)c1c(C)nc2ncccn12	-0.7	-1.0
64	CN(C(=O)CSc1nc(=O)n2cc(Cl)ccc2n1)c1ccccc1	16.9	13.7
65	CC(=O)Nc1ccc(S(=O)(=O)N(C#N)c2nc(C)cc(C)n2)cc1	-0.2	-0.8
66	COCCCNc1nc2nonc2nc1N1CCC(c2ccncc2)CC1	7.0	11.6
67	C=CCOCC(O)CN(CCC(C)C)Cc1ccccc1OC (stereo not drawn)	-21.5	-19.2
68	COCCO[C@H]1[C@H](NC(=O)C(C)C)c2ccccc2C12CCN(C(=O)c1cccnc1SC)CC2	17.9	9.7
69	Cn1nc(C(=O)NC2CCCC2)ccc1=O	2.1	4.5
70	CCc1[nH]c2ccc(CNC(=O)c3ccn4nnnc4c3)cc2c1C	4.3	5.1
71	CNC(=O)CN1CCN(Cc2csc3ccccc23)CC1	-5.5	-4.0
72	c1coc(CN2CCC(NC3CCCN(c4nc5ccccc5s4)C3)CC2)c1 (stereo not drawn)	6.0	2.3
73	CC(C)(C)CC(=O)N1CCN(c2nccc(-c3ccco3)n2)CC1	-3.3	-8.9
74	OCc1ccc(CN2CCc3c([nH]c4ccccc34)C2c2c(F)cccc2Cl)o1 (stereo not drawn)	1.5&14.0	-2.1&14.9
75	O=[N+]([O-])c1ccc(Cl)c(C2Nc3cccc4cccc(c34)N2)c1	3.7	3.9
76	Cc1cc(C)n2nc(C(=O)N/N=C\c3ccccc3Cl)nc2n1	-12.5	-20.7
77	O=C(Nc1cccc(C(F)(F)F)c1)c1c[nH]c2ccc(S(=O)(=O)N3CCc4ccccc4C3)cc2c1=O	-5.8	0.0
78	CC(=O)Nc1ccc(S(=O)(=O)N(CC(=O)N(Cc2ccc(F)cc2)Cc2sccc2C)C2CCCCC2)cc1	4.8	14.1
79	COc1cc(C)c(-c2nc(CN3CCN(c4nc5ccccc5s4)CC3)c(C)o2)cc1C	23.5	17.8
80	COc1ccc(C(=O)NNC(=O)c2cccs2)c(OC)c1	-3.1	-3.0
81	Cc1ccc(CNc2ccccc2COCC(O)CN(C)C2CCCCC2)o1 (stereo not drawn)	-3.0	1.5
82	CC(=O)NC1C(OC(C)C)OC(CO)C(O)C1O (stereo not drawn)	-1.1	-0.4
83	O=C1CC(N2CCN(c3ccc(F)cc3)CC2)C(=O)N1Cc1ccc(Cl)cc1 (stereo not drawn)	-1.7	2.9
84	Cc1ccc(NC(=O)CN(C)S(=O)(=O)c2ccc3c(c2)CC(=O)N3C)cc1	1.0	19.0
85	COc1ccc(C)cc1NC(=O)c1nn(-c2ccccc2)c(=O)cc1OC	1.8	0.6
86	CCN(C)Cc1ccc(-c2nc(-c3ccncc3)cc(=O)[nH]2)cc1	2.8	2.2
87	O=C(Nc1ccc(SCCN2CCCCC2)nn1)c1ccccc1	3.0	3.8
88	CCc1nc(N=C(N)N)nc2cc(C)ccc12	62.0*	48.8*
89	O=C(CSc1nnc(NC(=O)c2cccs2)s1)Nc1ccccc1F	2.9	9.1
90	O=C(c1ccco1)N1CCN(C(=O)c2ccco2)CC1	21.4&2.7	10.6&2.0

Compound profiles, as listed above. Order of screens: NPYLR7 ag | NPYLR7 ag max-min
Cc1ccc(CNc2ccccc2COCC(O)CN(C)C2CCCCC2)o1 (stereo not drawn) is entered as -3.0 | 1.5
CCS(=O)(=O)NCCc1cc2ccc(C)cc2[nH]c1=O is entered as 1.5 | 0.2
CC1=NC2=C(C(=O)CCC2)C(c2ccc(C)s2)C1C(=O)OC1CCCC1 (stereo not drawn) is entered as 20.0 | 18.6
Cc1c(C(C)NC(=O)c2ccnn2C)cnn1-c1ccccn1 (stereo not drawn) is entered as 13.4 | 6.2

A second format for part of the listing above.
Each structure is followed by: NPYLR7 ag	NPYLR7 ag max-min
82: CC(=O)NC1C(OC(C)C)OC(CO)C(O)C1O (stereo not drawn)
    -1.1	-0.4
80: COc1ccc(C(=O)NNC(=O)c2cccs2)c(OC)c1
    -3.1	-3.0

Further records follow:
#	molecule	NPYLR7 ag	NPYLR7 ag max-min
91	CCOC(=O)c1nn(-c2ccc(C)cc2)c(=O)cc1OCC(=O)NCc1ccc(C)cc1	8.4	3.7
92	CCCCOc1ccc(-c2nc(C=Nc3cc(C)on3)c(O)o2)cc1	-1.2	-1.4
93	COC(=O)C1Cc2ccccc2CN1C(=O)c1ccc(OC(F)F)c(OC)c1 (stereo not drawn)	1.3	-1.5
94	CC(=O)c1ccc(N2CCC(N3CCCC(C(=O)N4CCOCC4)C3)CC2)nc1 (stereo not drawn)	6.7	1.8
95	CCc1ccc(O)c(C(=O)N2CCC(C(=O)N3CCN(C)CC3)CC2)c1	14.4	8.8
96	O=c1c2cnc3ncnn3c2ccn1-n1cnnc1	3.8	7.3
97	CC1CCCC(C)N1C(=O)CS(=O)(=O)CCS(C)(=O)=O (stereo not drawn)	-0.8	-8.7
98	CC(C)CC(=O)NCCn1ncc2c(N3CCN(c4ccc(F)cc4)CC3)ncnc21	-6.3	-6.4
99	OCCN(CCO)CC(O)Cn1c2ccccc2c2ccccc21 (stereo not drawn)	2.0	0.9
100	CCCNC(=O)C1(C)CCCN(Cc2ccc(OC(F)(F)F)cc2)C1 (stereo not drawn)	0.0	-2.0
101	N#Cc1cccc(CNC2CCN(Cc3ccc(Cl)cc3)CC2)c1	0.3	-1.4
102	COc1ccc(CNC2CCCN(C)C2)c(Cl)c1OC (stereo not drawn)	4.6&7.8	1.0&8.4
103	Fc1ccc(Nc2nc3ccccc3n3cnnc23)cc1	5.6	4.1
104	CN(C)c1ccc(NC(=O)c2cccc(F)c2)cc1CN(C(=O)C1CC1)C1CC1	18.6	24.1
105	CCCc1[nH]n(-c2ccc([N+](=O)[O-])cc2)c(=O)c1C=NCCN1CCNCC1	-8.8	-13.7
106	CCOCCn1c(=O)c2c(nc3n2CCN3c2ccccc2)n(C)c1=O	2.8	-1.5
107	CC1=CC[C@@H]2CN(C(=O)CCn3ccccc3=O)C[C@@H]2C1	2.7	3.0
108	CCn1cc(CN(Cc2c(C)nn(C)c2Cl)CC(C)C)cn1	0.1	1.8
109	O=C(c1csc(CSc2nnc(-c3ccncc3)n2-c2cccc(Cl)c2)n1)N1CCN(C/C=C/c2ccccc2)CC1	4.9	5.0

A portion of the library, so the mix of outcomes need not match the whole.
